Screening results as filed in PubChem BioAssay.
AF4-AF9 inh: inhibitors of AF4 peptide binding to AF9, primary screen, biochemical, AlphaScreen, biotin-AF4 peptide, FLAG-AF9, single point | inhibition, % at 10 µM | 350,000 compounds, 0.47% hits;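 active means every replicate reaching a set inhibition limit, whatever the replicate mean, cut at about 25% in these data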;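 further: 0% = plate neutral control median and 100% = total signal loss; the record names both 10 and 1 µM as test concentration; the first replicate is given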
UCH37 inh: inhibitors of human UCH37 deubiquitinase, primary screen, biochemical, Ub-AMC cleavage, fluorescence; purified proteasome/UCH37; 330,000 compounds, 0.33% hits; inhibition, % (no concentration beside the values); AID 588478, 2011; Ubiquitin carboxyl-terminal hydrolase isozyme L5 (Homo sapiens), Q9Y5K5;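 active means mean of two replicates above 20%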;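 further: 0% = compound-free wells with enzyme and 100% = wells lacking proteasome; stock transfer was 100 nL into about 20 µL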
Target sequence (Q9Y5K5 whole entry, looked up): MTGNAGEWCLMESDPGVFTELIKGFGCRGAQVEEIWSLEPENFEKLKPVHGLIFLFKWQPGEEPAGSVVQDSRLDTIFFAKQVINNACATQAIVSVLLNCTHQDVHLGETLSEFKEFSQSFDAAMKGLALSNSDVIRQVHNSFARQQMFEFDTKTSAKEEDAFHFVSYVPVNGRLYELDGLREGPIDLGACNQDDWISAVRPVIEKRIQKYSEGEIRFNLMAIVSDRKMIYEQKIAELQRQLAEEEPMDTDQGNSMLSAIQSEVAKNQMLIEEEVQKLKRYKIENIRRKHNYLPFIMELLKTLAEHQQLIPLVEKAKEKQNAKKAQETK
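Material: human UCH37 enzyme supplied as purified proteasome complex / Amount: 0.15 nM proteasome as dispensed / Buffer or medium: pH 7.4 Tris-HCl (50 mM) with ovalbumin, ATP-MgCl2, DTT / Times: preincubation 30 min, reaction 25 min, room temperature / Technique: AMC fluorescence from Ub-AMC cleavage, excitation 355 nm, emission 460 nm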
Beta apoptosis: inhibitors of cytokine-induced beta cell apoptosis, primary screen, luminescence | INS-1E cytokine-induced death, ATP luminescence, 48 h; percent of positive-control rescue, neutral wells zero | protection from apoptosis, % (concentration not given with the values) | 300,000 compounds, 0.8% hits | AID 435005, 2010;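 active means all replicates at 75% or more, or half of them and the mean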;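 further: 0% = cytokine-treated negative control wells and 100% = positive control rescue; higher means more ATP so stronger rescue from cytokine killing; wells of about 40 µL received 100 nL stock; the first replicate is given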
A1 inh: caspase 3/7 activation in MEF A1-2A-BIM cells, primary screen, A1 inhibitor project, cell-based, luminescence, HTS; caspase activation, % (concentration not given with the values); Caspase-Glo 3/7 luminescence, 3 h; percent of clofoctol response, vehicle zero; AID 2462, 2010; 330,000 compounds, 0.066% hits;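 active means over half of replicate activation scores above 10%, or exactly half above 10 with the replicate mean above 10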;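 further: wells of about 30 µL received 50 nL stock; many hits fall short of the cut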
rRNA inh HTS: reduced GFP signal of wild-type E. coli, primary screen, bacterial rRNA inhibitor project, GFP/RFP fluorescence, OD600, single point; E. coli WT GFP vs humanized-ribosome RFP mutants, 24 h; stronger effect = lower value; DMSO median 0, no signal -100; GFP signal change (wild-type ribosome), % (test concentration not listed); 350,000 compounds, 1.6% hits;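 active means significant combined selectivity score with lowered wild-type GFP, culture density cut under 30%, mutant RFP and density less affected; inactive means any of these conditions unmet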; further: one replicate is shown; some compounds called inactive have numbers as strong as hits
T cruzi repl: inhibitors of intracellular T. cruzi growth, primary screen, luminescence, NIH3T3 host cells | inhibition, % (no concentration beside the values) | T. cruzi beta-gal in NIH3T3, 90 h | 300,000 compounds, 1.4% hits;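 active means mean inhibition across valid replicates above about 55%, limit read from the data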;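 further: signal also drops with host cell toxicity which is not excluded here; 0% = plate median of DMSO wells and 100% = zero luminescence signal; higher percent means less beta-gal luminescence so fewer parasites; stock transfer was 50 nL into about 50 µL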
E coli growth: E. coli growth inhibition, primary screen, OD600 | OD600 absorbance (concentration not given with the values) | Escherichia coli growth, 23 h; stronger effect = lower value | 330,000 compounds, 0.21% hits;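 active means OD600 absorbance below the run mean of sample wells minus 3.6 SD, in any replicate, cut at about 0.56 in these data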;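 further: stock transfer was 300 nL into about 60 µL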
FGF22 binding: binders of human FGF22 protein, primary screen, FGF22 synaptogenesis inhibitor project, biophysical, thermal shift, single point | recombinant FGF22 thermal shift, SYPRO orange fluorescence; percent of sucrose octasulfate shift, DMSO zero | calls only at 9.99 µM | 340,000 compounds, 1.5% hits | AID 651658, 2012;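 active means melting point raised past a set limit in the mean and every replicate; three in four hits are not shown here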
Target sequence (Q9HCT0 whole entry, looked up): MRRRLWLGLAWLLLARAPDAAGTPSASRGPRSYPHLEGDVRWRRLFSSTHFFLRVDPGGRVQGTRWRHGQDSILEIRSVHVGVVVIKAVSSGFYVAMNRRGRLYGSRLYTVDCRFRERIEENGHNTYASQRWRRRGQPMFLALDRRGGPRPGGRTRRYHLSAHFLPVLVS
rRNA inh HTS OD600: recorded beside rRNA inh HTS, whose call it bears; OD600 change, %; measured here: OD600 growth;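 optical density of the mix in the first replicate; 0 = DMSO median and -100 = no signal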
rRNA inh HTS RFP: second read-out of rRNA inh HTS, no call of its own (marks repeat the call); RFP signal change, %; measured here: RFP humanized mutant strains;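 first replicate; 0 = DMSO median and -100 = no signal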
An asterisk follows results filed as active; i = inactive; nt = not tested or not shown; & = joins results of further samples. Some of the compounds tested, so the mix of outcomes need not match the whole.

| Molecule | rRNA inh HTS OD600 | A1 inh | AF4-AF9 inh | Beta apoptosis | rRNA inh HTS RFP | rRNA inh HTS | E coli growth | FGF22 binding | UCH37 inh | T cruzi repl |
| --- | --- | --- | --- | --- | --- | --- | --- | --- | --- | --- |
| CCCc1cc(NCCCO)n2c(nc3ccccc32)c1C#N | 8 | 0.3 | -6.4 | -1 | 1.9 | 3 | 0.63 | nt | i | 4 |
| CC(=O)NC(CCS(C)(=O)=O)C(=O)Nc1c(F)cccc1F (stereo not given) | nt | 0.0 | nt | 0 | nt | nt | 0.71 | nt | -0.2 | -17 |
| COC(=O)/C(=C\c1c[nH]c2ccccc12)NC(C)=O | nt | 0.8 | nt | 2 | nt | nt | 0.66 | nt | 15 | -3 |
| COc1cc2[nH]c(=O)n(CCCC(=O)N3CC=C(c4ccccc4)CC3)c(=O)c2cc1OC | nt | -0.1 | nt | -4 | nt | nt | 0.71 | nt | -9.1 | 4 |
| CCn1nc(C)c([N+](=O)[O-])c1C(=O)NNC(=O)c1ccc(Cl)cc1 | 11 | 0.6 | -1.4 | nt | 3.0 | 8 | 0.64 | i | 3.9 | nt |
| NC(=O)c1c(NC(=O)CSc2nnc(Cc3ccccc3)n2Cc2ccco2)sc2c1CCC2 | nt | 0.4 | nt | 3 | nt | nt | 0.72 | nt | 4.4 | 3 |
| O=C(Cc1ccsc1)Nc1ccc(Cl)cc1Cl | -17 | 0.3 | 0.6 | 5 | -2.4 | -14 | 0.63 | i | -1.2 | -1 |
| Oc1ccc(C[C@@H]2CNCCN2CC2(c3ccccc3)CC2)cc1 | 1 | 1.6 | nt | -4 | -0.2 | 2 | nt | i | -2.2 | -2 |
| CCn1c(SCC(=O)Nc2ccc3c(c2)n(C)c(=O)n3C)nnc1-c1ccncc1 | nt | -0.1 | -6.9 | -3 | nt | nt | 0.69 | i | -0.8 | 5 |
| Cc1cc(C(=O)COC(=O)C2=NNC(=O)CC2)c(C)n1-c1ccc(OC(F)F)cc1 | nt | 0.8 | nt | 3 | nt | nt | 0.75 | nt | -4.5 | -3 |
| COc1cc(NC(=O)C2CC(=O)N(CCc3ccc(F)cc3)C2)cc(OC)c1OC (stereo not given) | -8 | -0.1 | -3.2 | 0 | 1.7 | -5 | 0.73 | i | 1.1 | -4 |
| FC(F)(F)c1ccc(C2[C@H]3CN(Cc4ccc(-c5ccccc5)cc4)[C@H](c4ccccc4)C34CC2(c2cccnc2)C4)cc1 (stereo not given in full) | -6 | 0.3 | 1.2 | 6 | -1.9 | 1 | nt | i | 0.9 | 24 |
| O=C(c1cc2cc(Cl)ccc2oc1=O)N1CCCC1 | nt | 0.3 | nt | -12 | nt | nt | 0.71 | nt | 3.8 | 3 |
| COc1cccc(CN2CCN(S(=O)(=O)c3ccccc3)CC2)c1OC | 1 | 0.1 | -1.7 | -7 | 2.5 | -11 | 0.66 | i | 6.6 | -10 |
| O=C(c1ccco1)N1CCN(C(=O)c2cn(-c3ccccc3)nc2-c2ccccc2)CC1 | nt | 0.1 | -3.2 | 2 | nt | nt | 0.7 | i | 0.4 | nt |
| O=C(/C=C/c1ccccc1)/C=C/c1ccccc1 | nt | 2.0 | 2.3 | 19 | nt | nt | 0.64 | nt | 5.4 | 1 |
| CCCc1nnc(NC(=O)CCC(=O)N2CCN(CCOc3ccc(C)cc3)CC2)s1 | nt | 0.0 | nt | 7 | nt | nt | 0.72 | nt | -1.3 | 9 |
| CC(C)(C)C1CCc2c(sc(NC(=O)CSc3nnc(-c4ccccc4)o3)c2C#N)C1 (stereo not given) | nt | -0.2 | nt | -8 | nt | nt | 0.72 | nt | -3.0 | 22 |
| COc1cc(/C=C(\C#N)C(=O)NC(C)C)cc(Cl)c1O | 10 | 0.0 | 1.5 | 1 | 9.3 | 1 | nt | i | nt | 12 |
| COc1cc2cc(C(c3nnnn3C(C)(C)C)N3CCc4ccccc43)c(=O)[nH]c2cc1OC (stereo not given) | -3 | 0.8 | 14 | -3 | 11 | -1 | 0.67 | i | 6.9 | 4 |
| C=CCOC(=O)C1=C(C)NC(SCC(=O)OCC)=C(C#N)C1c1ccc(C)cc1 (stereo not given) | nt | 0.1 | nt | 1 | nt | nt | 0.68 | nt | -0.6 | 13 |
| C=C(C)c1cccc(C(C)(C)NC(=O)NCc2ccncc2)c1 | -6 | 0.5 | 0.7 | -5 | 1.9 | 10 | 0.7 | i | 1.9 | -11 |
| CCCCOc1ccc(/C=N/NC(=O)c2nnn(-c3nonc3N)c2CN2CCCCCC2)cc1 | 5 | -0.6 | -0.4 | 2 | 1.1 | 6 | nt | i | nt | 6 |
| CC1(C)C(C=C(Cl)Cl)C1C(=O)N1CCN(c2ccccc2)CC1 (stereo not given) | nt | 0.4 | nt | 8 | nt | nt | 0.73 | nt | 1.5 | 2 |
| CC(=O)N1CCC(C(=O)Nc2cc(C)cc(C)c2)CC1 | 10 | 2.0 | -9.8 | nt | -1.3 | 2 | 0.67 | i | 2.6 | -9 |
| CC(=O)c1ccc(S(=O)(=O)N2CCC(NC(=O)Nc3cccc(F)c3)CC2)cc1 | -14 | -0.1 | 2.6 | -12 | -0.2 | -18 | 0.73 | i | 0.6 | 10 |
| O=C(Nc1ccccc1Cl)ON=C1c2ccccc2-c2ccccc21 | nt | -0.8 | nt | nt | nt | nt | 0.64 | nt | 5.8 | 9 |
| O=C1NCCN1CCNS(=O)(=O)c1ccccc1[N+](=O)[O-] | 1 | 1.3 | 2.1 | -10 | -4.3 | -4 | 0.62 | i | 0.4 | 3 |
| COc1ccc2cc3cc(C(=O)NCc4ccc5c(c4)OCO5)oc3nc2c1 | nt | 0.6 | nt | -7 | nt | nt | 0.77 | nt | -227 | 9 |
| CC(Sc1nc(NCc2ccccc2)nc(N2CCOCC2)n1)C(=O)Nc1ccccc1 (stereo not given) | nt | 0.7 | nt | 1 | nt | nt | 0.82 | nt | 2.8 | 23 |
| COc1ccc(C(C)(C)C)cc1NC(=O)COC(=O)c1nc2nccc(C)n2n1 | nt | -0.8 | 2.0 | -27 | nt | nt | 0.69 | i | 1.0 | nt |
| CC1(C)c2cc(O)ccc2OC1N1CCOCC1 (stereo not given) | 17 | 9.5* | 0.5 | -14 | 1.6 | 5 | 0.66 | i | 2.4 | -12 |
| Cc1ccc(S(=O)(=O)N(C)C)cc1NC(=O)c1ccc(OC(F)(F)F)cc1 | 15 | -0.6 | -18 | 1 | -7.7 | 4 | 0.68 | i | -14 | -3 |
| COc1ccc(C(=O)NCCS(=O)(=O)N2CCN(Cc3ccccc3)CC2)cc1 | 6 | -0.5 | -3.6 | 5 | 1.7 | 3 | 0.66 | i | 1.0 | 2 |
| C[C@@H](C(=O)NCC1CC1)[C@@H]1C[C@@]1(C)[C@@H](NC(=O)OCc1ccccc1)c1ccccc1 | -7 | -0.8 | -3.0 | 6 | -8.6 | -1 | nt | i | 1.4 | 1 |
| CCOc1cccc(OCCOCCOc2ccccc2C(C)=O)c1 | 1 | 0.3 | -4.4 | -15 | 5.9 | 6 | 0.71 | i | -1.5 | 20 |
| CC(C)(C)C(=O)N1CCC[C@H]1C(O)(c1ccccc1)c1ccccc1 | -47 | 0.5 | -0.5 | -10 | -18 | -26 | 0.7 | i | 1.9 | -15 |
| O=C(O)C1=C[C@@H](c2ccc(C(F)(F)F)cc2)C[C@@H](OCc2ccc(CO)cc2)O1 | -3 | 1.2 | -1.9&-7.8 | -1 | -0.1 | -10 | nt | i | 6.2 | -21 |
| O=C(O)CN1C(=O)CC(Cc2ccc(Cl)cc2)C1=O (stereo not given) | nt | -0.3 | nt | 5 | nt | nt | 0.71 | nt | 1.0 | -13 |
| O=C(CSc1nc2ccccc2[nH]1)c1ccc2c(c1)OCO2 | nt | 0.2 | nt | nt | nt | nt | 0.67 | nt | 4.4 | 6 |
| COc1cccc(-c2nc(Oc3cc(C)cc(C)c3)c3ccccc3n2)c1O | nt | -0.9 | nt | -1 | nt | nt | 0.72 | nt | 2.9 | -4 |
| Cc1ccc(NC(=O)CNC(=O)c2cccs2)c(O)c1 | 13 | 0.6 | -1.5 | 2 | 2.6 | 8 | 0.71 | i | -0.1 | -9 |
| CCCC(=O)NC(=S)Nc1ccc(N2CCOCC2)c(Cl)c1 | -7 | -0.6 | 1.2 | 0 | 0.0 | -5 | 0.72 | i | 2.1 | 11 |
| CC1CC(C)CN(S(=O)(=O)c2ccc3c(c2)CCN3C(=O)C2CC2)C1 (stereo not given) | 9 | 0.1 | -9.4 | 1 | 1.1 | 5 | 0.7 | i | 2.0 | 1 |
| CCOc1ccccc1NC(=O)CN(Cc1ccccc1)S(C)(=O)=O | -14 | -0.2 | -5.9 | 0 | 16 | -20 | 0.66 | i | 1.8 | 5 |
| Cc1[nH]c2ccccc2c1/C=N/NC(=O)CNC(=O)c1cccs1 | nt | 0.0 | -1.4 | nt | nt | nt | nt | i | nt | -1 |
| Cn1c(N)c(C(=O)CSc2nnc(C3CC3)n2-c2ccccc2)c(=O)n(C)c1=O | 7 | 0.0 | -3.1 | -7 | -1.7 | 0 | 0.69 | i | 0.7 | nt |
| CCC(CO)NS(=O)(=O)c1cc(-c2nn(C)c(=O)c3ccccc23)ccc1C (stereo not given) | -21 | -0.3 | -0.1 | -2 | -1.9 | -22 | 0.66 | i | 3.2 | 12 |
| CN(Cc1ccon1)Cc1cn(C)nc1-c1ccc(Oc2ccccc2)cc1 | -15 | -0.1 | 18 | -3 | 6.4 | -11 | 0.69 | i | 6.3 | 4 |
| CCOC(=O)N1CCc2c(sc3c2c(=O)n(Cc2ccccc2)c(=O)n3CC(=O)NCCOC)C1 | 7 | -0.1 | -1.3 | -5 | -0.8 | 15 | 0.72 | i | 3.7 | 13 |
